Screening results: PubChem, National Center for Advancing Translational Sciences (NCATS)
Lassa entry inh: blocks Lassa virus binding to or entry into cells; Lassa virus pseudotype entry inhibition, cell reporter; control for the full effect not named in the record; Potency, µM (top dose mostly 37.9 µM), for the others: at the top dose activity change, negative = inhibition, most hits filed as inhibitors; 300,000 compounds, 1.2% hits; AID 540256; active means well fitted inhibition curve with a large enough effect; inconclusive means small, poorly fitted or top-dose-only effect, or effect the other way; inactive means flat fitted curve, though single readings scatter; tested in HEK293 cells; note: % is set by controls: 0 for no effect and ±100 for the full control effect; nearly all actives have a fitted effect of over 50% in size; luciferase read-out
Cruzain inh Det: cruzain (T. cruzi) inhibition with detergent; Potency, µM, inactives show max response, negative = inhibition, most hits filed as inhibitors; 200,000 compounds, 0.43% hits; purified cruzain, Z-FR-AMC fluorescence, 0.01% Triton; P25779;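 note: plate controls were neutral wells for no effect and buffer without enzyme for full effect; nearly all actives have a fitted effect of over 40% in size; top concentration of the series not given in the record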
Target sequence (P25779 123-467 limits assumed): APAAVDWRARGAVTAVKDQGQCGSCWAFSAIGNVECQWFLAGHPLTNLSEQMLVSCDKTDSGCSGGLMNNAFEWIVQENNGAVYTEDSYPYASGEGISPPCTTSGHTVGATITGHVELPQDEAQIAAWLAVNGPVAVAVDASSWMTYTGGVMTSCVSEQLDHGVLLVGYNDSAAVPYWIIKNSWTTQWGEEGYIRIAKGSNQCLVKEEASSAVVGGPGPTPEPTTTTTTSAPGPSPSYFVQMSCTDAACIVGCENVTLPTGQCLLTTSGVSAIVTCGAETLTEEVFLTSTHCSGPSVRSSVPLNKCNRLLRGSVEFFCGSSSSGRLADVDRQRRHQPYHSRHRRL
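Cruzain (1.5 nM) preincubated 15 min at RT with compound in 100 mM sodium acetate pH 5.5, 5 mM DTT, 0.01% Triton X-100. Reaction started with 2 uM Z-FR-AMC; AMC fluorescence (ex 360/em 450 nm) change over 60 s gave rate.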
NS1 function inh: inhibitors of influenza NS1 protein function; S. cerevisiae slowed by influenza A NS1, growth recovery by OD600; Potency, µM (doses to about 46.1 µM), without a hit: top-dose activity, positive = more growth; 270,000 compounds, 0.4% hits; AID 2326; active means well fitted rising curve with a large enough effect; inconclusive means small, poorly fitted or top-dose-only effect; inactive means no such curve, though single readings can be large or run the other way; note: nearly all actives have a fitted effect of over 50% in size
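OD600 was taken as the measure of yeast growth restored by compound in an NS1-expressing S. cerevisiae strain. Cells had been washed out of glucose medium and diluted 1:100 into galactose -URA medium, pH 6.0.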
MARV entry inh: inhibitors of Marburg virus binding or cell entry. Marburg virus pseudotyped entry inhibition, cell reporter; control for the full effect not named in the record; about a third of the inactives were read at about 46 µM. Potency, µM (top dose mostly 37.8 µM), without a hit: top-dose activity change, negative = inhibition, most hits filed as inhibitors. 300,000 compounds, 1.8% hits. AID 540276; active = well fitted inhibition curve with a large enough effect; inconclusive = small, poorly fitted or top-dose-only effect, or effect the other way; inactive = flat fitted curve, though single readings scatter; tested in HEK293 cells; about a fifth of its hits are not listed in these tables; note: % is set by controls: 0 for no effect and ±100 for the full control effect; luciferase read-out
RE007 growth inh: less growth of the S. pombe RE007 Vpr strain; S. pombe RE007 Vpr strain, BacTiter-Glo ATP luminescence, 24 h; control for the full effect not named in the record; 360,000 compounds, 0.21% hits; AID 651644; Potency, µM (titrated, usually from 92.2 µM), for inactives: at the highest dose activity change, negative = less growth; active = well fitted falling curve with a large enough effect; inconclusive = small, poorly fitted or top-dose-only effect; inactive = no such curve, though single readings can be large or run the other way;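 note: % is set by controls: 0 for no effect and ±100 for the full control effect; nearly all actives have a fitted effect of over 50% in size; the assay follows cell death caused by Vpr and the record does not say whether a fall means rescue or toxicity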
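Fission yeast strain RE007, carrying one chromosomally integrated HIV-1 vpr copy, was seeded at OD 0.01 in PMG+AL medium with 23 nL pinned compound. After 24 h at 30 °C and 99% humidity, viability was read by BacTiter-Glo luminescence.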
SARS PLpro yeast: blocks SARS-CoV papain-like protease in a yeast assay; Potency, µM (titrated, usually from 32.9 µM), for inactives: top-dose activity, positive = growth rescue; AID 485353; S. cerevisiae expressing SARS-CoV PLpro, growth rescue; control for the full effect not named in the record; 330,000 compounds, 0.19% hits; active means well fitted rising curve with a large enough effect; inconclusive means small, poorly fitted or top-dose-only effect; inactive means no such curve, though single readings can be large or run the other way; note: 0% is about no effect; nearly all actives have a fitted effect of over 55% in size; growth read by luminescence after 48 h
2A StopGo: lowers the luciferase signal of an FMDV 2A StopGo reporter; human cells with a luciferase reporter of 2A StopGo recoding; control for the full effect not named in the record; Potency, µM (highest dose often 57.9 µM), for inactives: at the top dose signal change, negative = less light; 410,000 compounds, 1.2% hits; AID 1159524; active = well fitted falling curve with a large enough effect; inconclusive = small, poorly fitted or top-dose-only effect; inactive = no such curve, though single readings can be large or run the other way; tested in HEK293T cells; note: % is set by controls: 0 for no effect and ±100 for the full control effect; nearly all actives have a fitted effect of over 45% in size; luciferase light after 4 h
Cruzain noTriton: inhibitors of Trypanosoma cruzi cruzain without detergent; 200,000 compounds, 2.3% hits; Potency, µM, inactives show max response, negative = inhibition, most hits filed as inhibitors; purified cruzain, Z-FR-AMC fluorescence, no detergent; AID 1476;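 note: plate controls were enzyme without inhibitor for no effect and buffer without enzyme for full effect; nearly all actives have a fitted effect of over 40% in size; top concentration of the series not given in the record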
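Purified cruzain at 1.5 nM, pre-incubated 15 min with compound at room temperature in 100 mM sodium acetate pH 5.5, 5 mM DTT, 0.00005% Triton X-100. Reaction started with 2 uM Z-FR-AMC; AMC fluorescence increase over 60 s gives rate.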
* marks the source's active call; other numbers are inactive results; ? = inconclusive; . = no result given; & = joins results of further samples; [ ] = another dose, or the depositor's remark. Unless noted, calls come from the whole dose curve; as a rule, active = well fitted curve in the direction sought with a large enough effect; inconclusive = small, poorly fitted or top-dose-only effect, or another doubt; inactive = no such curve, though single readings can be large; an effect the other way counts as inactive or inconclusive. Potency is the fitted concentration of half-maximal effect.

entry	SMILES	Lassa entry inh	Cruzain inh Det	NS1 function inh	MARV entry inh	RE007 growth inh	SARS PLpro yeast	2A StopGo	Cruzain noTriton
1	CCc1c(-c2ccccc2)nc2ccccc2c1C(=O)NC(C)c1ccccc1 (stereo not given)	-26%[46.1 µM]	0.4%	.	.	.	.	-15%	6%
2	CC(Sc1nc2ccccc2s1)C(=O)c1c(N)n(C)c(=O)n(C)c1=O (stereo not given)	.	.	-9%	.	-15%	0%	-13%	.
3	CCNc1nc(Cl)nc(NNC(=O)C(C)Oc2ccccc2)n1 (stereo not given)	-7%	-1.7%	3%	?	.	9%	-21%	-6%
4	CC(=O)Nc1ccc(NC(=O)Cn2c(=O)ccc3cc(S(=O)(=O)N4CCC(C)CC4)ccc32)cc1	9%[46.1 µM]	0.6%	.	.	.	.	-10%	-14%
5	Cn1c(SCC(=O)Nc2ccc3c(c2)OCCO3)nnc1C1CC1	15%[46.1 µM]	.	1%	-2%[46.1 µM]	2%	1%	12%	.
6	O=C(CN1C(=O)c2cccc3cccc1c23)Nc1ccc(S(=O)(=O)Nc2nccs2)cc1	-7%	-6.1%	12%	9%	20%[3.69 µM]	4%	34%[activator]	3%
7	Cc1ccc(S(=O)(=O)N2CCN(C(=O)COC(=O)C3CCC3)CC2)c(C)c1	0%	.	.	26%	1%	2%	-2%	.
8	COc1ccc(C(C)=O)cc1CSCCC#N	-4%	-0.5%	-7%	?	13%	7%	-20%	-12%
9	O=C(Nc1ccccc1)c1ccc(COc2ccccc2)cc1	?	.	2%	14%	-5%	0%	28%	.
10	COCCn1cc(-c2csc(N)n2)c2ccccc21	.	.	16%	.	2%	-4%	-2%	.
11	CN(c1ccc(C(=O)N2CCOCC2)cc1)S(=O)(=O)c1cccs1	1%[46.1 µM]	.	19%	?	8%	-4%	1%	.
12	CCOc1ccc(OCCC(=O)OCC(=O)N2CCN(S(=O)(=O)c3ccc(Cl)cc3)CC2)cc1	?	.	-42%	?	-9%	-1%	?	.
13	COc1ccc(CCNC2=C(Cl)C(=O)N(CCc3ccccc3)C2=O)cc1OC	-26%	-13%	8%	?	-15%	9%	22µM*	?
14	CCOC(=O)N1CCN(C(=O)C2CCC(=O)N(CCCN3CCCC3=O)C2)CC1 (stereo not given)	-11%[46.1 µM]	.	-2%	5%[46.1 µM]	13%	-1%	28%	.
15	Cc1ccc(C(=O)Nc2cc(Cl)ccc2N2CCCCC2)s1	?	2.8%	-5%	?	-9%	-14%	?	-4%
16	COc1cc(OC)c(C(=O)N(CCc2ccccc2)Cc2ccccc2)cc1OC	-8%	.	-60%	-17%	-4%	3%	-24%	.
17	O=C(CCC(=O)N(c1ccccc1)C(C(=O)NC1CCCC1)c1ccncc1)Nc1cccnc1 (stereo not given)	-6%	6.9%	-16%	-30%&-30%	0%	1%	12%	10%
18	CC(C)(C)c1ccc(NC(=O)N2CCCN(c3ccc([N+](=O)[O-])cn3)CC2)cc1	?	.	-2%	-21%[46.1 µM]	5%	-3%	32µM*	.
19	COC(=O)c1ccccc1S(=O)(=O)N1CCC(C(=O)OC(C)C(=O)N(C)Cc2ccccc2)CC1 (stereo not given)	?	.	.	?	-12%	.	?	.
20	CC(C)COC(=O)c1ccccc1N1C(=O)C2C3CCC(C3)C2C1=O (stereo not given)	?	0.3%	-19%	?	8%	-8%	-6%	5%

Given with two lines to a compound: 9 of the compounds above.
Order of results – Lassa entry inh, Cruzain inh Det, NS1 function inh, MARV entry inh, RE007 growth inh, SARS PLpro yeast, 2A StopGo, Cruzain noTriton
1) CCc1c(-c2ccccc2)nc2ccccc2c1C(=O)NC(C)c1ccccc1 (stereo not given)
 : -26%[46.1 µM], 0.4%, ., ., ., ., -15%, 6%
2) CC(Sc1nc2ccccc2s1)C(=O)c1c(N)n(C)c(=O)n(C)c1=O (stereo not given)
 : ., ., -9%, ., -15%, 0%, -13%, .
3) CCNc1nc(Cl)nc(NNC(=O)C(C)Oc2ccccc2)n1 (stereo not given)
 : -7%, -1.7%, 3%, ?, ., 9%, -21%, -6%
4) CC(=O)Nc1ccc(NC(=O)Cn2c(=O)ccc3cc(S(=O)(=O)N4CCC(C)CC4)ccc32)cc1
 : 9%[46.1 µM], 0.6%, ., ., ., ., -10%, -14%
5) Cn1c(SCC(=O)Nc2ccc3c(c2)OCCO3)nnc1C1CC1
 : 15%[46.1 µM], ., 1%, -2%[46.1 µM], 2%, 1%, 12%, .
6) O=C(CN1C(=O)c2cccc3cccc1c23)Nc1ccc(S(=O)(=O)Nc2nccs2)cc1
 : -7%, -6.1%, 12%, 9%, 20%[3.69 µM], 4%, 34%[activator], 3%
7) Cc1ccc(S(=O)(=O)N2CCN(C(=O)COC(=O)C3CCC3)CC2)c(C)c1
 : 0%, ., ., 26%, 1%, 2%, -2%, .
8) COc1ccc(C(C)=O)cc1CSCCC#N
 : -4%, -0.5%, -7%, ?, 13%, 7%, -20%, -12%
9) O=C(Nc1ccccc1)c1ccc(COc2ccccc2)cc1
 : ?, ., 2%, 14%, -5%, 0%, 28%, .

Carrying on.
entry	SMILES	Lassa entry inh	Cruzain inh Det	NS1 function inh	MARV entry inh	RE007 growth inh	SARS PLpro yeast	2A StopGo	Cruzain noTriton
21	Cn1c(=O)c2c(ncn2CC(=O)OCC(=O)Nc2ccc(Cl)cc2)n(C)c1=O	?	-0.1%	17%	8%	2%	19%	14%	5%
22	COc1ccc(NCC(=O)N/N=C/c2cc([N+](=O)[O-])ccc2N2CCCC2)cc1	12%	.	.	23%[46.1 µM]	-9%	-1%	-2%	.
23	Nc1nonc1-n1nnc(C(=O)N/N=C/C2CC=CCC2)c1CSc1ccccc1 (stereo not given)	-8%	.	0%	18%	-11%	-1%	-9%	.
24	COc1ccc(-c2nc3c(c(=O)n(C)c(=O)n3C)n2CC2CC(c3ccccc3)=NO2)cc1OC (stereo not given)	0%	.	-1%	?	22%	.	0%	.
25	Clc1ccc(Sc2cnc3ccccc3n2)cc1	9%	-1.8%	6%	?	-16%	.	23%	-10%
26	COc1ccc(NC(=O)c2cc3ccccc3o2)cc1OC	16%	.	-19%	8%	3%	10%	53%[activator]	.
27	CCOc1cc(/C=C2/SC(=S)NC2=O)ccc1OC(=O)c1ccco1	11%	.	.	0%[46.1 µM]	13%	1%	4%	.
28	CC(Oc1coc(CN2CCN(C(=O)c3ccco3)CC2)cc1=O)c1ccccc1 (stereo not given)	3%	.	.	11%	-18%	-1%	4%	.
29	COC(=O)c1ccc(CSc2cc(C)c3ccccc3n2)o1	-3%	.	.	-26%[46.1 µM]	-5%	-8%	-16%	.
30	CCOc1ccc(CCNC(=O)c2cc3sccc3n2C)cc1OCC	-26%	0.9%	-10%	7.1µM*	19%	-1%	?	8%
31	Cc1nc2ccccc2nc1CSc1nnc(N)s1	0%	-4.3%	3%	5%	-2%	18%	-10%	-4%
32	Cc1c(C(=O)N/N=C/c2ccccc2)[nH]c2ccc(Cl)cc12	.	-7.2%	-2%	.	-15%	-15%	101%[activator]	-2%
33	CC(c1ccccc1)n1c(SCC(=O)N2CC(=O)Nc3ccccc32)nc2ccccc2c1=O (stereo not given)	?	-6.7%	?	?	17%	2%	?	3%
34	CCOC(=O)N/N=C\c1ccc([N+](=O)[O-])o1	-12%	-3.8%	-29%	-3%	-16%	-6%	.	4%
35	CCc1ccccc1S(=O)(=O)Cc1ccc(C(=O)NC2CCCC2)o1	.	.	0%	.	-4%	-1%	12%	.
36	COc1ccc(C(=O)N2CCN(Cc3ccccc3C)CC2)cc1OC	-17%	0.9%	-8%	?	8%	6%	-24%	-5%
37	c1ccc(OCCOc2ccccc2-c2nnco2)cc1	?	2.3%	-23%	23%[46.1 µM]	7%	0%	43%[activator]	2%
38	Cc1ccccc1-n1ncc2c1CC(C)(C)CC2NC(=O)CCn1cncn1 (stereo not given)	.	.	-9%	.	9%	2%	12%	.
39	CN(Cc1ccccc1)S(=O)(=O)c1ccc(Cl)c(C(=O)NCc2cccnc2)c1	9%	.	.	-22%	8%	0%	?	.
40	CCCc1ncc(C(O)c2cccc(OC)c2OC)n1C (stereo not given)	-21%	5.0%	9%	4%	8%	0%	.	0%

Additional results:
entry	SMILES	Lassa entry inh	Cruzain inh Det	NS1 function inh	MARV entry inh	RE007 growth inh	SARS PLpro yeast	2A StopGo	Cruzain noTriton
41	O=C(NCc1ccco1)C1CCCN(S(=O)(=O)c2ccc(Br)cc2)C1 (stereo not given)	6%	.	0%	-32%[46.1 µM]	2%	1%	-15%	.
42	CCOC(=O)c1cc2c(=O)c3ccccc3oc2nc1C	.	.	0%	5%	2%	-3%	38%[activator]	.
43	CC(=O)NC(Cc1ccccc1)C(=O)OCC(=O)c1ccc(Br)cc1 (stereo not given)	3%	-2.1%	-15%	-9%	-12%	4%	-9%	2%
44	CCOC(CNC(=O)c1cccn2c(=O)c3c(C)c(C)sc3nc12)OCC	.	.	9%	.	4%	0%	-12%	.
45	COc1ccc(CNc2nc3c(c(=O)n(C)c(=O)n3C)n2Cc2ccccc2Cl)cc1	?	-1.6%	.	1%[46.1 µM]	.	.	-8%	-13%
46	O=C(NNC(=O)c1c(O)c2ccccc2[nH]c1=O)c1ccccc1Br	.	.	-39%	-14%[46.1 µM]	0%	-21%	22%	.
47	Cn1nnc2cc(C(=O)N3CCSCC3)ccc21	-1%	6.7%	7%	-1%	36%	2%	-4%	-3%
48	Cc1cc(C)c(NC(=O)Cn2c(=O)n(CC(=O)NCc3ccccc3Cl)c(=O)c3sccc32)c(C)c1	4%[46.1 µM]	-1.0%	.	-6%[46.1 µM]	.	.	0%	-5%
49	O=C(O)CN(Cc1ccco1)S(=O)(=O)c1ccc(F)cc1	12%	2.2%	3%	-24%	-16%	-2%	7%	2%
50	O=C(Cc1ccccc1)Nc1ccnn1C1CCN(Cc2ccc(CO)o2)CC1	0%	.	-6%	-16%	2%	.	2%	.
